# High-throughput results from PubChem.
# KCNQ2 pot = potentiators of rat KCNQ2 potassium channel | Potassium voltage-gated channel subfamily KQT member 2 (Rattus norvegicus), O88943 | CHO-K1 KCNQ2, FluxOR thallium flux fluorescence; active compounds read high | B-score at 10 µM | 310,000 tested, 0.54% active | AID 2239, 2010;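 active = fluorescence ratio B-score at least 3 SD of library B-scores, with initial fluorescence B-score within 3 SD, cut at about 5.3 in these data; same plate scores as AID 2156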;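 also: B-score of peak minus minimum over baseline fluorescence ratio after K+ and Tl+ stimulus; positive B-score means potentiation of KCNQ2 with more thallium influx and brighter signal; only the inactives scoring about 0 or higher are listed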
# Target sequence (O88943 whole entry, looked up): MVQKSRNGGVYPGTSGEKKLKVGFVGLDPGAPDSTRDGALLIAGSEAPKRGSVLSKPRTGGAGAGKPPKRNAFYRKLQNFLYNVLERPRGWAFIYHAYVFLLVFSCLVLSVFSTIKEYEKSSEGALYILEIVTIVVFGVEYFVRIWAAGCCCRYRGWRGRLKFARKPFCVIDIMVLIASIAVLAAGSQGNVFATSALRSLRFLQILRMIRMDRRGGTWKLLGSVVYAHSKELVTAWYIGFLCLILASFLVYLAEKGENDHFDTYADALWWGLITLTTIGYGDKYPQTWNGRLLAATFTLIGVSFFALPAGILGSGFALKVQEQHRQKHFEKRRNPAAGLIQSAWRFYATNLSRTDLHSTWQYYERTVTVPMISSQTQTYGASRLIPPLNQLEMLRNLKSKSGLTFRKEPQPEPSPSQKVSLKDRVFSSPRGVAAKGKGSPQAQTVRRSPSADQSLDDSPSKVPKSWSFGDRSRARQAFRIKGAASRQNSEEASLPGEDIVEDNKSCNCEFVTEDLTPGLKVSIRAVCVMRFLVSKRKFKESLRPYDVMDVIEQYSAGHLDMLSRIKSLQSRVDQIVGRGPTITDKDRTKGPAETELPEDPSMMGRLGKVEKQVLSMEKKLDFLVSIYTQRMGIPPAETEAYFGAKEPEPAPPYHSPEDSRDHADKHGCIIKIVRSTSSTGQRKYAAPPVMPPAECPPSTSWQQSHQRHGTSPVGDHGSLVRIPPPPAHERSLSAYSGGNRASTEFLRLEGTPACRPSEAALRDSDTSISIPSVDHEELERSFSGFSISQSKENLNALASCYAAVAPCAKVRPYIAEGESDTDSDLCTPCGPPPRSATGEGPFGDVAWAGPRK
# KCNQ2 pot baseline = further read-out of KCNQ2 pot, marked with its call; B-score; compound at 10 µM; measured here: initial fluorescence intensity artifact check;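 brightness before thallium and not channel activity; 0 = typical well and far values either way flag optical interference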
# Numbers without * were called inactive. An excerpt; count on the stated rates, not on these rows.
Molecule,KCNQ2 pot,KCNQ2 pot baseline
COc1ccc(NC(=O)CSc2nnc(CCC(=O)Nc3ccc(C)c(Cl)c3)n2C)cc1,1.8,-0.03
CC(=O)c1ccc(NC2c3ncccc3C(=O)N2Cc2ccc(F)cc2)cc1 (configuration not stated),0.08,-0.95
COC(=O)c1cccc(NC(=O)C(C)(C)C)c1,1,-1
COc1ccc(CNC(=O)C2Cc3ccccc3CN2C(=O)c2ccco2)cc1 (configuration not stated),0.95,-1.4
CCOc1ccc(/C=N/NC(=O)CC(=O)NCc2ccccc2)cc1,1.8,-0.15
NS(=O)(=O)c1ccc(NC(=O)C2Cc3ccccc3CN2C(=O)c2ccco2)cc1 (configuration not stated),1.1,-0.18
COc1ccc(C(=O)NCCS(=O)(=O)NCC2CCCO2)cc1 (configuration not stated),1.9,-1.8
CNC(=S)N(CCc1c(C)[nH]c2ccc(OC)cc12)Cc1ccco1,0.45,-0.13
COc1cc(/C=N/Nc2ccccn2)ccc1OCC(C)C,1.5,-1.6
CCNC(=O)C(=O)NCC(c1ccc2c(c1)OCO2)N1CCOCC1 (configuration not stated),1.2,2.5
O=C(Nc1cccc(Cl)c1)Nc1ccc2nccnc2c1,1.9,0.01
CC(C)(C)OC(=O)N1CCC(c2cc(=O)n3[nH]cc(C(=O)Nc4ccc(F)c(Cl)c4)c3n2)CC1,2.5,0.6

# The list goes on.
Molecule,KCNQ2 pot,KCNQ2 pot baseline
ON(Cc1c(F)cccc1Cl)Cc1c(F)cccc1Cl,0.01,2
CC(C)NC(=O)Cn1cc(C#N)c2cc(Br)ccc21,0.24,-0.63
Cc1ccn2c(NC3CCCC3)c(-c3ccsc3)nc2c1,0.14,-0.41
Cc1ccc(OCCN2CCN(C(=O)CCC(=O)Nc3nnc(CC(C)C)s3)CC2)cc1,3.4,-1.7
CCn1c(COc2ccccc2OC)nnc1SCC#N,2.2,2.4
COc1cc(C(=O)OCC(=O)Nc2ccc3c(c2)OC(F)(F)O3)ccc1OCc1c(C)noc1C,0.34,0.42
COCC(=O)N(Cc1ccccc1)c1ccccn1,0.55,-1.2
O=C(COC(=O)CN1C(=O)c2ccccc2C1=O)NC1CCCCC1,0.04,-1.2
O=C(NCCCN1CCOCC1)c1cc2c(s1)-c1ccccc1OC2,1.1,0
CN(C)S(=O)(=O)N1CCN(c2ccc(Cl)cc2)CC1,1.3,0.85
O=c1ncn(-c2ccccc2F)c2ncccc12,1.8,-1.2
Oc1ccc(Br)cc1C=Nc1ccc2[nH]ncc2c1,0.86,-0.14

# Going on with the list.
Molecule,KCNQ2 pot,KCNQ2 pot baseline
COc1ccc(NC(=O)c2nn(C)cc2[N+](=O)[O-])cc1,0.79,0.05
Cc1cc(=O)n2nc(N3CCCC3C(=O)NCCCN3CC(C)CC(C)C3)sc2n1 (configuration not stated),0.93,-1.8
CC12CN(NC(=O)c3ccccc3F)C3(C#N)CC1CCC23C (configuration not stated),0.2,-0.02
COc1ccccc1N1C(=S)N=C(Nc2c(C)cccc2C)C12CCCC2,0.12,0
COc1ccc(C(=O)Nc2ccc(C(=O)OCC(=O)c3cccc4ccccc34)cc2)cc1,0.29,0.63
NC(=S)c1ccc(C(N)=S)o1,0.01,-0.03
CCOC(=O)C1=C(O)C(Nc2nccs2)(C(F)(F)F)N=C1C (configuration not stated),0.73,-0.14
COC(=O)c1ccc(/C=C/C(=O)O)cc1,0.08,-1.4
COc1ccc(-c2nnc(CSc3nc4ccccc4c(=O)n3C)o2)cc1OC,0.03,-1.8
O=C(O)C1Nc2c(Cl)cc(Cl)cc2C2C=CCC12 (configuration not stated),3.8,0.08
Cc1cc(NC(=O)CSc2nc3ccccc3c(=O)n2Cc2ccc(F)cc2)no1,0.15,0.05
CCOC(=O)c1[nH]c2c(c1C)C(=O)CC(c1ccc(OC)c(OC)c1)C2 (configuration not stated),1.2,0.06

# Next records:
Molecule,KCNQ2 pot,KCNQ2 pot baseline
CCCCn1c(=O)c(-c2ccccc2)c(O)c2ccccc21,2.1,-1.1
CCCCn1c(=O)c2c(O)cc(=O)oc2c2ccccc21,0.13,0.58
COc1cc(S(=O)(=O)N2CCN3CCCC3C2)ccc1-n1cnnn1 (configuration not stated),0.26,1.9
O=C(COC(=O)c1ccc(S(=O)(=O)NCc2ccco2)cc1)NCCC1=CCCCC1,0.44,-2.3
Cn1ncc2c(Nc3ccc(Cl)cc3)ncnc21,4.6,0.01
O=C(C[n+]1cc(-c2ccc(Br)cc2)n2c1CCCCC2)c1ccccc1,0.78,-1.4
COc1cc(/C=C/C(=O)Nc2nnc(C(C)(C)C)s2)cc(OC)c1OC,0.5,-1.2
Cc1ccc2c(c1)c1c3n2CCN(CC#N)C3CCC1 (configuration not stated),0.94,2
COc1ccc(-c2csc(NC(=O)CCn3cnc4ccccc4c3=O)n2)cc1OC,0.72,-0.47
CC(C)OCCCNC(=O)C1CC(=O)N(CCc2ccc(F)cc2)C1 (configuration not stated),1.1,-0.6
CN1CCN(C(=O)N2c3ccccc3C=Cc3ccccc32)CC1,0.73,-0.9
Cn1ncc2c(O/N=C(\N)c3ccc(C(C)(C)C)cc3)ncnc21,6.2*,0.05*

# (cont.)
Molecule,KCNQ2 pot,KCNQ2 pot baseline
COc1ccc(CNCCNC(=O)c2cccs2)cc1OC,0.54,0.42
COCCn1nnnc1CN1C2CCCC1CC(NC(C)=O)C2 (configuration not stated),0.67,0.78
Cc1cc(C(=O)COC(=O)C2=NNC(=O)CC2)c(C)n1CCc1ccccc1,1.3,-0.62
CCn1c(N)c(C(=O)N2CCOCC2)sc1=S,3.2,-0.56
Cc1cc(=O)oc2cc(OCCSCCN3CCOCC3)ccc12,0.1,-0.01
CCn1cc(C(=O)O)c(=O)c2cnc(N3CCN(C(=S)Nc4ccc(F)cc4)CC3)nc21,1.4,0
Cc1ccc(C(=O)Nc2nc3ccc(S(C)(=O)=O)cc3s2)o1,0.31,-1.9
Cc1csc(=O)n1CCC(=O)OCC(=O)Nc1ccc(F)c(F)c1F,0.49,-1.1
O=C(CCC(=O)c1cccs1)Nc1ccccc1F,0.03,-0.91
Nc1ccc(S(=O)(=O)Nc2ncccn2)cc1,1.7,-1.4
C/C(Cc1ccccc1)=N\NC(=O)CNC(=O)c1cccc(F)c1,0.37,0.3
CCOP(=O)(OCC)c1nc(-c2ccc(Cl)cc2Cl)oc1N1CCCCC1,0.23,-0.73

# (list continues)
Molecule,KCNQ2 pot,KCNQ2 pot baseline
CC(=O)Nc1nc(-c2ccc3c(c2)CC(C)N3C(=O)C2CC2)c(C)s1 (configuration not stated),1.6,-0.64
O=S(=O)(O)c1nc2ccccc2n1Cc1ccccc1,1.1,1.3
CN(Cc1ccccc1)c1ccc(S(=O)(=O)N2CCC(C(=O)O)CC2)cc1[N+](=O)[O-],0.96,0.9
C=CCn1c(CCNC(=O)c2ccccc2F)nnc1SCC(=O)Nc1nc(C)cs1,0.45,0.42
Cc1ccc(-c2ccnc(=S)[nH]2)cc1,2.8,-1.4
Cc1ccc(-n2nc3c(=O)n(CC(=O)NCCc4cccs4)nc(C)c3c2C)cc1,0.01,-0.92
CCCCC(=O)Nc1ccc(C(=O)NNC(=O)c2ccc(C)c(Br)c2)cc1,0.98,-2.3
CN(C)S(=O)(=O)c1cccc(C(=O)NCC2(N3CCOCC3)CCCCC2)c1,0.81,0.61
Cc1cccc(OC(C)C(=O)N/N=C\c2ccncc2)c1 (configuration not stated),0.74,0.08
Nc1ccncc1N,0.01,0.88
Cc1cccc(NC(=O)COn2nnc3ccc(S(C)(=O)=O)cc32)c1,0.52,-0.24
CC(C)(C)CC(=O)Nc1cccc(-c2cn3cccnc3n2)c1,2.1,-0.24

# Looked up one by one from above (2):
Molecule,KCNQ2 pot,KCNQ2 pot baseline
CN(Cc1ccccc1)c1ccc(S(=O)(=O)N2CCC(C(=O)O)CC2)cc1[N+](=O)[O-],0.96,0.9
CC(C)(C)CC(=O)Nc1cccc(-c2cn3cccnc3n2)c1,2.1,-0.24

# The results go on.
Molecule,KCNQ2 pot,KCNQ2 pot baseline
CCCCn1c(N)c(N(CCOC)C(=O)C(C)Oc2ccc(Cl)cc2)c(=O)[nH]c1=O (configuration not stated),0.85,0.04
COc1ccc(C2CC(c3cccs3)=NN2C(=O)CSC2=NN3CCCC(=O)N=C3S2)cc1 (configuration not stated),0.17,0.05
CCOc1cc(S(=O)(=O)NCc2ccccn2)ccc1Cl,0.4,0.32
S=C(NCCc1ccccc1)N/N=C/C1CCCCC1,0.01,-0.09
CCOc1ccc(C(=O)NCCc2cnc[nH]2)cc1,0.05,2.2
CCc1ccc(NC(=O)CSc2nnc(C3CC3)n2CC2CCCO2)cc1 (configuration not stated),0.43,-0.07
COc1ccccc1C1CC(c2ccc(F)cc2)Nc2ncnn21 (configuration not stated),0.46,0.02
CCc1cc2c(NCC3CCCO3)ncnc2s1 (configuration not stated),0.76,-1.2
COC(=O)c1cccc(NC(=O)Nc2ccc(Cl)c(Cl)c2)c1,0.48,-1.1
Cc1cc(C)n(-c2nnc(C)n2/N=C/c2ccccc2F)n1,1,0.66
Cc1cccc(-n2ccnc2SCC(=O)Nc2ccc3c(c2)OCCO3)c1,2.5,0.02
O=C(N/N=C/C=C\c1ccccc1[N+](=O)[O-])c1ccccn1,2,-1.1

# The list goes on.
Molecule,KCNQ2 pot,KCNQ2 pot baseline
Cc1c(CC(=O)NCC(=O)N[C@H](Cc2ccccc2)C(=O)O)c(=O)oc2cc(O)ccc12,0.46,0.82
Cn1c(=NC(=O)C2CC2)sc2cccc(F)c21,0.1,0.85
O=C(Nc1cccc([N+](=O)[O-])c1)c1cc(S(=O)(=O)N2CCOCC2)cs1,1.1,-0.24
CC(Nc1nc(N2CCN(S(C)(=O)=O)CC2)nc2ccccc12)c1ccccc1 (configuration not stated),0.46,-1.6
CC(C)(C)OC(=O)N1CC2Cc3[nH]c(=O)ccc3C(C2)C1 (configuration not stated),0.18,-0.2
COCCOC(=O)c1c(C)oc2ccc(OS(C)(=O)=O)cc12,0.51,1.4
CCOc1cc(/C=C2\C(=N)N3N=C(S(=O)(=O)CC)SC3=NC2=O)ccc1OC(=O)c1ccco1,0.13,0.18
O=C(Nc1ccc(F)cc1)N1CCN(CCc2ccccc2)CC1,1.2,-0.9
COc1ccc(NC(=S)N2CCNC(=O)C2CC(=O)Nc2ccc(C)cc2)cc1 (configuration not stated),0.02,-1.5
Cc1ccsc1/C=N/NC(=O)CNC(=O)c1c(F)cccc1Cl,1.3,-1.2
O=c1c(Cc2ccc(Cl)cc2Cl)c(O)ccn1CCCN1CCOCC1,0.02,-0.18
O=C(CSc1ncnc2c1cnn2-c1ccccc1)NCC1CCCO1 (configuration not stated),0.53,0.08

# Among those listed so far, 7 contain two or more sulfur atoms.
Molecule,KCNQ2 pot,KCNQ2 pot baseline
NC(=S)c1ccc(C(N)=S)o1,0.01,-0.03
CCn1c(N)c(C(=O)N2CCOCC2)sc1=S,3.2,-0.56
Cc1ccc(C(=O)Nc2nc3ccc(S(C)(=O)=O)cc3s2)o1,0.31,-1.9
C=CCn1c(CCNC(=O)c2ccccc2F)nnc1SCC(=O)Nc1nc(C)cs1,0.45,0.42
COc1ccc(C2CC(c3cccs3)=NN2C(=O)CSC2=NN3CCCC(=O)N=C3S2)cc1 (configuration not stated),0.17,0.05
O=C(Nc1cccc([N+](=O)[O-])c1)c1cc(S(=O)(=O)N2CCOCC2)cs1,1.1,-0.24
CCOc1cc(/C=C2\C(=N)N3N=C(S(=O)(=O)CC)SC3=NC2=O)ccc1OC(=O)c1ccco1,0.13,0.18

# (continued)
Molecule,KCNQ2 pot,KCNQ2 pot baseline
Cc1ccc(-n2ncc(C(=O)Nc3cc(Cl)ccc3C)c2C2CCNCC2)cc1C,1.1,-0.29
COc1cccc(-c2cc(C(=O)N3CCN(S(=O)(=O)c4ccc(Br)cc4)CC3)[nH]n2)c1,0.29,0.76
Cc1ccc(C(=O)NC2CCN(S(=O)(=O)c3ccccc3)CC2)cc1,0.65,-1.7
CN(Cc1ccccn1)C(=O)C1CCC(=O)N(CCc2ccc(Cl)cc2)C1 (configuration not stated),0.06,-1
CCOC(=O)c1c(NC(=O)c2cc(CC(C)C)on2)sc(C(C)=O)c1C,0.1,-0.08
CCC(=O)c1ccc(OCC(=O)N2CCCC2)c(OC)c1,0.12,-1.7
Nc1nnc(SCc2ccc(F)cc2)s1,1.8,1.2
COc1cccc(NC(=O)CSc2nnc(C)s2)c1,0.05,0.85
c1ccc(CN2CCN(C(c3ccccc3)c3ccccc3)CC2)cc1,0.45,-1.4
CC1=C(n2ccnc2)CCC1=O,1.7,-1.4
COc1ccc(Cc2nnc(NC(=O)c3cccc([N+](=O)[O-])c3)s2)cc1,0.27,-0.77
Cc1ccc(-c2nc(S(=O)(=O)c3ccccc3)c(SCC(=O)NCC3CCCO3)o2)cc1 (configuration not stated),0.05,-0.12

# (listing goes on)
Molecule,KCNQ2 pot,KCNQ2 pot baseline
CCOC(=O)c1ccccc1NC(=O)/C(C)=C/C(=O)O,2.2,-0.54
OCCN1CCN(c2ncnc3scc(-c4ccc(F)cc4)c23)CC1,0.34,0.69
O=C(c1ccccc1)N1CCN(C(=S)NCCc2ccccc2)CC1,0.77,-1.2
COc1ccc(NC(=O)c2coc(C)c2)cc1,0.18,-0.52
COC(=O)c1cc(OC)c(OC)cc1NC(=O)c1ccccc1,0.47,0.56
Cc1cc(C)c(C)c(S(=O)(=O)Nc2ccc(O)cc2)c1C,0.39,0.8
COc1ccc(C2c3c(ccc4ccccc34)Oc3ncn4nc(CO/N=C/c5ccccc5)nc4c32)cc1 (configuration not stated),0.47,-1.5
O=C(CNC(=O)c1ccc(S(=O)(=O)N2CCCC2)cc1)N/N=C/c1ccccc1Cl,0.02,-0.05
CCn1cc(C(=O)N[C@H](C(=O)NCCCO)C(C)C)c(=O)c2cc3c(cc21)OCO3,1.3,1
